gsp antagonist: qHTS for Antagonists of gsp, the Etiologic Mutation Responsible for Fibrous Dysplasia/McCune-Albright Syndrome: qHTS | gsp-mutant cells, cAMP HTRF, 30 min; control for the full effect not named in the record | Potency, µM (top dose mostly 76.9 µM), inactives show at the top dose activity change, negative = inhibition, most hits filed as inhibitors | 340,000 tested, 0.4% active; active = falling curve of any shape with a large fitted effect; inconclusive = falling curve, mostly with a smaller effect; inactive = flat or rising curve; cell line not stated here;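 note: intracellular cAMP measured with PDE inhibitor Ro 20-1724 present during compound exposure; potency is the fitted concentration of half-maximal effect; % is set by controls: 0 for no effect and ±100 for the full control effect; nearly all actives have a fitted effect of over 65% in size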
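Cells in G418 medium, seeded 16-24 h, 37C; buffer exchange to DPBS + 1 mM CaCl2, 0.5 mM MgCl2, 0.05% BSA; cpds in DMSO + […] (300 uM stock), 30 min 37C; HTRF cAMP detection.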
gsp agonist: qHTS for Agonist of gsp, the Etiologic Mutation Responsible for Fibrous Dysplasia/McCune-Albright Syndrome: qHTS | gsp mutant cells, cAMP HTRF, 30 min; control for the full effect not named in the record | Potency, µM (top dose mostly 76.9 µM), for inactives: top-dose activation (cAMP increase), most hits filed as activators | 340,000 tested, 0.13% active | AID 624287, 2012; active = well fitted activation curve with a large enough effect; inconclusive = small, poorly fitted or top-dose-only effect, or another doubt; inactive = no such curve, though single readings can be large or run the other way; cell line not stated here;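 note: phosphodiesterase inhibitor Ro 20-1724 added with compounds to block cAMP breakdown; potency is the fitted concentration of half-maximal effect; nearly all actives have a fitted effect of over 60% in size; about a fifth of the inactives were tested at one dose only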
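Cells in DMEM/10% FBS with G418 were pretreated with compounds in DMSO plus […] (300 uM stock) for 30 min at 37C. cAMP was measured by HTRF (cAMP-d2 plus anti-cAMP antibody-K) after 30 min at room temperature.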
Menin MLL FP FL: qHTS Assay for Inhibitors Targeting the Menin-MLL Interaction in MLL Related Leukemias: Competition With Fluorescein Labeled MLL-derived Peptide. Fluorescence polarization, fluorescein-MLL peptide displacement from menin. FP activity change, % at 61.4 µM. 290,000 tested, under 10 active. AID 1766, 2009; inconclusive = falling polarisation curve, or a change in total fluorescence; inactive = total fluorescence flat and polarisation flat or rising; no compound was filed as active; the % refers to the polarisation; negative = inhibition;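 note: % of control where 0% means no effect; inhibitors lower the polarisation; unlabelled MLL peptide was the positive control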
ClpP mod: qHTS Assay for Activators of ClpP. 340,000 tested, 1.9% active. ATP-dependent Clp protease proteolytic subunit (Bacillus subtilis (strain 168)), P80244. Potency, µM (series often up to 57.5 µM), without a hit: at the top dose activity change, negative = active. purified B. subtilis ClpP, FRET peptide cleavage, 20 min; active = well fitted falling curve with a large enough effect; inconclusive = small, poorly fitted or top-dose-only effect; inactive = no such curve, though single readings can be large or run the other way; note: potency is the fitted concentration of half-maximal effect; the source files actives as falling curves though it sought activators and does not explain the sign; nearly all actives have a fitted effect of over 65% in size; many hits overshoot -100%
Target sequence (P80244 whole entry, looked up): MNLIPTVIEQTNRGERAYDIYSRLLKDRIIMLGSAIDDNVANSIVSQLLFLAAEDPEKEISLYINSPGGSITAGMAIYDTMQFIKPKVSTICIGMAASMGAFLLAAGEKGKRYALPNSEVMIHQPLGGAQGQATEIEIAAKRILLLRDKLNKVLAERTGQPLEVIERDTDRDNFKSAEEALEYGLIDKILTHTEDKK
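Buffer: 100 mM Tris/HCl pH8, 100 mM KCl, 0.05% low protease BSA, 2.5% glycerol, 0.01% Tween-20. ClpP 10 microg/mL final; 20 min RT; delta FRET normalized to ADEP and DMSO controls.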
TRPML1 agonist: qHTS for Agonists of the Human Mucolipin Transient Receptor Potential 1 (TRPML1); 410,000 tested, 0.12% active; Mucolipin-1 (Homo sapiens), Q9GZU1; activation, % (no concentration beside the values); TRPML1-expressing cells, Ca2+ dye fluorescence, FDSS; host cell line not named in the record; reference of the full effect not given here; AID 624414, 2012; in the data active = activation above about 50%; inconclusive = about 30% to 50%; inactive = below about 30%; note: 0% is about no effect; the text of the record puts the active cut at 80%
Target sequence (Q9GZU1 whole entry, looked up): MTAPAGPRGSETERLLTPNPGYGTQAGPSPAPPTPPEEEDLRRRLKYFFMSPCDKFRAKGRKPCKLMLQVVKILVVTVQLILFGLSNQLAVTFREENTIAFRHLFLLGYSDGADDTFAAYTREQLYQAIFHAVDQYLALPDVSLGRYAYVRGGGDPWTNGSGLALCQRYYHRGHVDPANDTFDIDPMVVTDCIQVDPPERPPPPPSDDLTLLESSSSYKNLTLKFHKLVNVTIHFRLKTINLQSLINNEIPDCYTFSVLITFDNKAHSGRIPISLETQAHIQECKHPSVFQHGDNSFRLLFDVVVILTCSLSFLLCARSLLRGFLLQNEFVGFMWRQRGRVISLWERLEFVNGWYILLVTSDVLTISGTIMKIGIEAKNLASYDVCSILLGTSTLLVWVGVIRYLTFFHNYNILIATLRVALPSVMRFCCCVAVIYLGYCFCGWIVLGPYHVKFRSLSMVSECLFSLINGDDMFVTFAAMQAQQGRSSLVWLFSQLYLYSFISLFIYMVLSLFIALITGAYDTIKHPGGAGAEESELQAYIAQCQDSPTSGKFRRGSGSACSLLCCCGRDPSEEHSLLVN
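Tet-induced TRPML1-DL cells, 1,500 per well, cultured overnight, were loaded with a no-wash Ca2+ dye for 45–90 min. Calcium fluorescence was recorded on the FDSS for 110 s after compound addition, before the EC80 agonist (4 uM 54-4) was added.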
TRPML1 inh: qHTS for Inhibitors of the Human Mucolipin Transient Receptor Potential 1 (TRPML1); Mucolipin-1 (Homo sapiens), Q9GZU1; TRPML1-inducible cells, Ca2+ dye fluorescence, FDSS; stronger effect = lower value; inhibition of EC80 agonist-evoked calcium signal; activity change, negative = inhibition, % (test concentration not listed); 390,000 tested, 0.02% active; AID 624415, 2012; in the data active means activity change below about -50%; inconclusive means about -30% to -50%; inactive means above about -30%;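 note: stimulus is agonist 54-4 at its EC80 concentration; % is set by controls: 0 for no effect and ±100 for the full control effect; compound concentration not given in the record; the text of the record puts the active cut at -80%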
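TRPML1-DL cells, Tet-induced overnight (~16 h, 37 °C) at 1,500 cells/well, were loaded with Ca8 no-wash dye plus quencher for 45-90 min at room temperature. Compounds were pinned during FDSS kinetic reading; agonist 54-4 at EC80 (4 uM final) then added.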
The depositor's hits bear a star; ? = inconclusive; . = not tested or not shown; & = joins results of further samples; [ ] = dose if it differs, or a comment.

compound | gsp antagonist | gsp agonist | Menin MLL FP FL | ClpP mod | TRPML1 agonist | TRPML1 inh
O=c1[nH]c2ccc(Cl)cc2c(-c2ccccc2)c1[N+](=O)[O-] | -2% | -18% | -1.1 | 0.8% | 4.6 | 12
COc1ccc(Cl)cc1NC(=O)c1ccc2c(c1)CCCN2S(C)(=O)=O | . | . | . | -24% | 0.0 | 23
O=[N+]([O-])c1c(NCc2ccco2)ccc2nonc12 | -7% | -1%[15.4 µM] | 2.8 | . | -0.5 | 0
Cc1ccc(C)c(OCC(=O)Nc2ccccc2C(=O)NC2CC2)c1 | 4% | 1% | . | -0.3% | 1.4 | -22
COCCCN1C(=O)C(=O)/C(=C(/O)c2ccc(S(=O)(=O)N3CCOCC3)cc2)C1c1ccc(C)cc1 (configuration not stated) | 11% | -38%[inhibitor] | . | 1.0% | -0.3 | 7
CCN1CCN(c2ncnc3sc4c(c23)CCC(C)C4)CC1 (configuration not stated) | 4% | -1% | 3.7 | -5.3% | 2.2 | 48
CC(C)c1ccc(NC(=O)NN2CCOCC2)cc1 | -6% | -2% | 1.6 | -2.2% | 0.6 | -12
COc1ccc(NC(=O)CCOc2ccc(C)cc2)c(OC)c1 | 0% | -6%[15.4 µM] | 0.4 | -6.5% | -0.8 | 11
COc1ccc(CCN2C(=O)CC(Nc3ccc(N4CCOCC4)cc3)C2=O)cc1OC (configuration not stated) | ? | -4% | -1.6 | -0.3% | -0.1 | 5
Cc1ccc(OCCC(=O)Nc2ccc3c(c2)OCO3)cc1 | -3% | 13% | . | -1.8% | 2.5 | 3
COc1cccc(/C=C/C(=O)NCCc2ccc(OC)c(OC)c2)c1 | 2% | -2% | 0.2 | ? | 1.2 | -1
CCc1ccc(C(=O)NCC2(c3ccccc3)CCOCC2)o1 | 12% | 7%[15.4 µM] | . | . | -0.3 | -4
COC(=O)c1ccc(NC(=O)CSc2ncc3c(n2)-c2cc(Cl)ccc2N(Cc2ccccc2)S3(=O)=O)cc1 | . | . | . | ? | -0.1 | 11
CCCCn1c(CNC(=O)Cc2ccccc2)nc2ccccc21 | -3% | ? | 3.4 | -2.5% | 0.1 | 4
COc1cccc(CN2CCN(C(=O)c3cccc(OC)c3)CC2)c1 | 8% | 23% | 1.3 | 1.5% | -0.3 | 6
CCCOc1ccc(C(=O)Nc2ccc(Cl)cn2)cc1 | -7% | -29% | 3.9 | 1.4% | 3.7 | 5
CC(C)CN1CCNC(=O)C1CC(=O)NCCc1ccc(C(F)(F)F)cc1 (configuration not stated) | 3% | -2% | -1.9 | . | 0.0 | -15
c1ccc(Cn2nnnc2C(c2cccnc2)N2CCN(C3CCCCC3)CC2)cc1 (configuration not stated) | -6% | -21% | 0.6 | -5.0% | 1.4 | -7
CCOC(=O)CN1C(=O)S/C(=C/c2ccco2)C1=O | -2% | -3%[15.4 µM] | 8.1 | 0.3% | -0.1 | 6
CC(C)(C)n1nc2c(c1NC(=O)c1ccc(S(=O)(=O)N3CCCC3)cc1)CSC2 | -5% | 3% | 2.4 | 0.9% | 3.5 | 6
COc1cc(OC)cc(-c2c(-c3ccc(F)cc3)c3cc(-c4ccc5c(c4)OCCO5)ccc3n2C)c1 | 6% | -1% | . | 4.6% | -0.1 | 8
O=[N+]([O-])c1ccc2c(c1)ncn2CCc1ccccc1 | -6% | 19% | -2.6 | 1.9% | 1.4 | 24
CCOC(=O)C1=C(O)C(=O)N(C2CCCCC2)C1 | -7% | 19%[15.4 µM] | 1.5 | -1.1% | -0.5 | 6
COc1ccc(S(=O)(=O)N2CCCC2C(=O)Nc2nnc(-c3cccnc3)s2)cc1 (configuration not stated) | -11% | 6% | 1.7 | 28µM* | -0.8 | 3
COC(=O)Nc1nnc(CC(=O)Nc2ccccc2C)s1 | 8% | -9% | -1.4 | 0.9% | -0.8 | -12
O=C(CSc1ncnc2sccc12)NCc1ccc2c(c1)OCO2 | 9% | ? | . | -1.0% | 1.7 | 2
CCOC(=O)N1CCC(NC(=O)c2cnn(-c3ccccc3)c2C2CCN(C(=O)OC(C)(C)C)CC2)CC1 | . | . | . | -1.4% | 1.4 | -21
Cc1cc(SCC(=O)Nc2c(C)n(C)n(-c3ccccc3)c2=O)nc2ccccc12 | -2% | ? | . | -6.9% | -0.4 | -12
CCOc1ccc(OCCC(=O)OCC(=O)N2CCN(S(=O)(=O)c3ccc(C)cc3C)CC2)cc1 | 1% | -6% | . | 0.4% | 0.9 | 17
O=C(/C=C/c1ccco1)NC(=S)Nc1cccc(-c2nc3ccccc3o2)c1 | 7% | 19% | 31[activator] | 3.5% | 0.2 | -5
Cc1c(NC(=O)c2cn3ccccc3n2)cccc1-n1cnnn1 | 12% | -8% | 2.0 | . | -0.4 | 17
COc1ccc(CCNC(=O)COc2ccc3c(C)cc(=O)oc3c2)cc1 | 1% | 6% | . | . | 0.2 | -2
COC(=O)C(C)Sc1nc2c(cnn2-c2ccc(Cl)cc2)c(=O)[nH]1 (configuration not stated) | -10% | ? | -9.0 | -0.5% | 0.2 | 4
COc1cc(C(=O)Nc2ccc3nc(SCc4ccc(C)cc4)sc3c2)cc(OC)c1OC | . | . | . | ? | 0.0 | 5
Cc1ccccc1OCC(=O)Nc1sc2c(c1C#N)CC(C)(C)NC2(C)C | 11% | 2%[15.4 µM] | 3.6 | . | -0.3 | 27
CC(C)c1ccc(NC(=O)c2cccnc2)cc1 | 0% | 6% | 3.1 | 1.4% | -0.2 | 13
O=C(COC(=O)Cc1ccc(Cl)cc1Cl)Nc1ccc(OC(F)F)cc1 | 2% | -19% | -0.1 | 0.8% | 2.2 | -12
COc1ccc(-n2ncc3c(SCC(=O)OC(C)C)ncnc32)cc1 | . | -70%[inhibitor] | . | -3.5% | 1.4 | -18
Nc1c(C(=O)NC2CCCC2)c2nc3ccccc3nc2n1/N=C/c1ccco1 | 4% | -9% | ? | ? | 0.3 | 7
Cc1nc2nc(NC(=O)CC(C)C)[nH]n2c(=O)c1Cc1ccccc1 | . | . | . | 0.1% | 1.6 | 60
Cc1cc([N+](=O)[O-])ccc1N | 0% | -18%[15.4 µM] | . | 0.3% | 1.5 | 1
Cc1ccc(-c2c3c(=O)n(C)c(=O)n(C)c3cn2Cc2ccccc2)cc1 | -11% | -42%[inhibitor] | 0.8 | -4.1% | 0.4 | -4
Cc1cc(Nc2cc(C(=O)O)ccc2C)n2ncnc2n1 | 2% | -30% | 0.9 | 0.5% | 0.1 | -10
Cc1cc(C)cc(NC(=O)C2CCCN(C(=O)c3cnn(-c4ccccc4)c3-n3cccc3)C2)c1 (configuration not stated) | . | . | . | -0.3% | 0.7 | 25
Cc1nn(-c2ccc(N3CCOCC3)nn2)c(C)c1CCC(=O)NCc1ccc(F)cc1 | -1% | 0% | -0.4 | -1.5%&-0.6% | -0.5&-0.8 | 14&5
O=C(C1CCCC1)N1CCC(CO)(Cc2ccccc2Cl)CC1 | -17% | 4%[15.4 µM] | -0.1 | . | 0.5 | 2
CCC1(c2ccc(F)cc2)NC(=O)N(CC(=O)N2CCN(C(=O)c3ccco3)CC2)C1=O (configuration not stated) | -3% | 16%[15.4 µM] | . | -0.5% | 0.0 | 3
Cc1ccc(C(=O)c2ccccc2C(=O)OCC(=O)Nc2cccc([N+](=O)[O-])c2)cc1 | -37% | -38%[inhibitor] | -0.1 | 1.1% | 0.0 | -2
CCOC(=O)C1CCN(C(=O)Nc2ccc(OC(F)(F)F)cc2)CC1 | -5% | -2%[15.4 µM] | -0.1 | . | 0.3 | 19
c1ccc2c(c1)ncn2-c1ncnc2sc3c(c12)CCCC3 | -16% | 10% | -1.3 | ? | 0.5 | 8
Cc1cc(C)cc(NC(=O)Nc2cnccn2)c1 | 9% | 15% | . | -5.2% | -0.5 | -3
Cc1ccc(NC(=O)CSc2nc3c(c(=O)[nH]2)CN(Cc2ccc(F)cc2)CC3)cc1C | -25% | -44% | -2.5 | 1.0% | -0.5 | -7
Cc1ccc(NC(=O)CCc2c[nH]c3ccccc23)nc1 | 8% | -36%[inhibitor] | . | -3.5% | 3.0 | 55
Cc1ccc(Nc2cnn(C34CC5CC(CC(CC(=O)O)(C5)C3)C4)c(=O)c2Cl)c(Cl)c1 | -6% | 1% | 2.3 | . | -0.7 | -19
O=C(/C=C\Nc1cccc(F)c1)c1ccc2c(c1)OCO2 | 13% | -50%[inhibitor] | 2.4 | -7.4% | -0.5 | -5
CC1(NC(=O)c2cc(Cl)nc3ccccc23)CCS(=O)(=O)C1 (configuration not stated) | 6% | 9% | . | -14% | 0.4 | -4
Cn1cnc(S(=O)(=O)N2CCC(C(=O)Nc3ccc(OC(F)(F)F)cc3)CC2)c1 | . | . | . | 0.1% | 0.7 | -6
CN1CCN(C(=S)SCc2nc(N)nc(Nc3ccc(F)cc3)n2)CC1 | -4% | ? | 4.4 | -2.1% | -0.3 | -8
O=S(=O)(c1ccccc1)c1nc(-c2ccco2)oc1Nc1ccccc1 | -16% | -25% | 2.2 | -15% | 3.8 | 28
C=CCOn1c(=O)c(-c2ccc(OC)c(OC)c2)[n+]([O-])c2ccccc21 | 1% | ? | -0.2 | -1.1% | 0.4 | 7

Some entries already given, reduced to Menin MLL FP FL, TRPML1 agonist and gsp agonist.
compound	Menin MLL FP FL	TRPML1 agonist	gsp agonist
CN1CCN(C(=S)SCc2nc(N)nc(Nc3ccc(F)cc3)n2)CC1	4.4	-0.3	?
c1ccc2c(c1)ncn2-c1ncnc2sc3c(c12)CCCC3	-1.3	0.5	10%

Further results
compound | gsp antagonist | gsp agonist | Menin MLL FP FL | ClpP mod | TRPML1 agonist | TRPML1 inh
O=C1CCCC2=C1C1(CCCCC1)N=C(Nc1nc3ccccc3s1)N2 | -1% | ? | 0.1 | -9.7% | 2.5 | 12
COc1cccc(-c2nn[nH]n2)c1O | -1% | -51%[inhibitor] | 0.1 | 1.4% | -0.2 | -9
O=C(CCCn1c(=O)[nH]c2cc(Cl)ccc2c1=O)NCCCN1CCCC1 | 16% | ? | -2.4 | -14% | -1.1 | 1
O=C(NCC1CCCO1)C1CCC(=O)N1Cc1ccc(F)cc1 (configuration not stated) | 3% | -26% | 0.5 | -2.8% | 0.1 | 45
CCN(C(=O)CSc1nnc(Nc2ccc(OC)cc2)s1)C1CCS(=O)(=O)C1 (configuration not stated) | -4% | 12% | . | . | 2.3 | -7

Screening results as filed in PubChem.
